# Screening data as filed in PubChem.
# Menin MLL FP FL – displaces fluorescein MLL peptide from human menin; Fluorescence polarization, fluorescein-MLL peptide displacement from menin; FP activity change, % at 61.4 µM; 290,000 tested, under 10 active; AID 1766; inconclusive = falling polarisation curve, or a change in total fluorescence; inactive = total fluorescence flat and polarisation flat or rising; no compound was filed as active; the % refers to the polarisation; negative = inhibition;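 further: % of control where 0% means no effect; inhibitors lower the polarisation; unlabelled MLL peptide was the positive control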
# TRPML1 blocker – human mucolipin-1 channel inhibition. Q9GZU1. TRPML1-inducible cells, Ca2+ dye fluorescence, FDSS; active compounds read low; inhibition of EC80 agonist-evoked calcium signal. activity change, negative = inhibition, % (no concentration beside the values). 390,000 tested, 0.02% active; in the data active means activity change below about -50%; inconclusive means about -30% to -50%; inactive means above about -30%;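 further: stimulus is agonist 54-4 at its EC80 concentration; on the % scale 0 is the no-effect control and ±100 the full control effect; compound concentration not given in the record; the text of the record puts the active cut at -80%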
# Target sequence (Q9GZU1 whole entry, looked up): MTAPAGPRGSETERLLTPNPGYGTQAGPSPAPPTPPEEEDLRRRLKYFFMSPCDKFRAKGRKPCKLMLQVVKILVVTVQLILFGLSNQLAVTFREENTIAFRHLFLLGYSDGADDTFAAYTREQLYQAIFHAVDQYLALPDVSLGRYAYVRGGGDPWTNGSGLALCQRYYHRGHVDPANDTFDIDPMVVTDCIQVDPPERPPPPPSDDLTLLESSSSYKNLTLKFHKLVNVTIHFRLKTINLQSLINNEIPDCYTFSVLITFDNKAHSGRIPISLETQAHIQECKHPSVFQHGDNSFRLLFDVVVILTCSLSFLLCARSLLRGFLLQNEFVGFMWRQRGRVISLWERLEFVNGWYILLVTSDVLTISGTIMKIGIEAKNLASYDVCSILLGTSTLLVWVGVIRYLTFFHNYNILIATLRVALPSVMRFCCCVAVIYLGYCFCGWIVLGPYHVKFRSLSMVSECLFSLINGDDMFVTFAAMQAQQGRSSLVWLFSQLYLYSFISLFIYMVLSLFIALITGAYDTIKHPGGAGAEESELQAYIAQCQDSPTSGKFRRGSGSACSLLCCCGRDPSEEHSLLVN
#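 Calcium fluorescence in TRPML1-DL cells induced overnight with Tet: a 110 s read after compound pin addition, then a 110 s antagonist read after challenge with 54-4 at 4 uM final (EC80).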
# ClpP mod – qHTS Assay for Activators of ClpP; purified B. subtilis ClpP, FRET peptide cleavage, 20 min; AID 651965, 2013; Potency, µM (doses to about 57.5 µM), without a hit: at the top dose activity change, negative = active; 340,000 tested, 1.9% active; active = well fitted falling curve with a large enough effect; inconclusive = small, poorly fitted or top-dose-only effect; inactive = no such curve, though single readings can be large or run the other way; further: potency means the concentration at half of the fitted maximal effect; the source files actives as falling curves though it sought activators and does not explain the sign; nearly all actives have a fitted effect of over 65% in size; many hits overshoot -100%
# Target sequence (P80244 whole entry, looked up): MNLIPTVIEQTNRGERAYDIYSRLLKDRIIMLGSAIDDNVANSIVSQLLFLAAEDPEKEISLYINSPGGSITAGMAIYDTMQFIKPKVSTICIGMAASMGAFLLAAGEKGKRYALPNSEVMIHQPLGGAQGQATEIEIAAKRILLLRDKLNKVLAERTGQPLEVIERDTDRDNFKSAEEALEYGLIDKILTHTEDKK
#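 ClpP 10 microg/mL final, pH 8 Tris/KCl buffer with BSA, glycerol, Tween-20; compound pinned in; FRET-FV substrate; RT 20 min; Ex320/Em430; ΔFRET vs ADEP 5.8 microM, DMSO, no enzyme.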
# gsp agonist – gsp mutant agonism; gsp mutant cells, cAMP HTRF, 30 min; control for the full effect not named in the record; Potency, µM (series often up to 76.9 µM), without a hit: top-dose activation (cAMP increase), actives largely listed as activators; 340,000 tested, 0.13% active; active = well fitted activation curve with a large enough effect; inconclusive = small, poorly fitted or top-dose-only effect, or another doubt; inactive = no such curve, though single readings can be large or run the other way; cell line not stated here;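 further: phosphodiesterase inhibitor Ro 20-1724 added with compounds to block cAMP breakdown; potency means the concentration at half of the fitted maximal effect; nearly all actives have a fitted effect of over 60% in size; about a fifth of the inactives were tested at one dose only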
#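 Cells in DMEM/10% FBS with G418 were pretreated with compounds in DMSO plus […] (300 uM stock) for 30 min at 37C. cAMP was measured by HTRF (cAMP-d2 plus anti-cAMP antibody-K) after 30 min at room temperature.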
# gsp antag – antagonists of gsp mutant (McCune-Albright syndrome) | gsp-mutant cells, cAMP HTRF, 30 min; control for the full effect not named in the record | Potency, µM (highest dose often 76.9 µM), for the others: top-dose activity change, negative = inhibition, hits mostly inhibitors | 340,000 tested, 0.4% active | AID 624288; active = falling curve of any shape with a large fitted effect; inconclusive = falling curve, mostly with a smaller effect; inactive = flat or rising curve; cell line not stated here;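 further: intracellular cAMP measured with PDE inhibitor Ro 20-1724 present during compound exposure; potency means the concentration at half of the fitted maximal effect; on the % scale 0 is the no-effect control and ±100 the full control effect; nearly all actives have a fitted effect of over 65% in size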
#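 Cells, 2000/well, grown 16–24 h in DMEM 10% FBS with 0.5 mg/ml G418, then compounds plus […] (300 uM addition stock), 30 min at 37C. cAMP read by HTRF (cAMP-d2 and anti-cAMP antibody-K in lysis buffer) after 30 min RT.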
# TRPML1 agonist – human mucolipin-1 channel agonism; AID 624414; 410,000 tested, 0.12% active; activation, % (no concentration beside the values); Q9GZU1; TRPML1-expressing cells, Ca2+ dye fluorescence, FDSS; host cell line not named in the record; reference of the full effect not given here; in the data active = activation above about 50%; inconclusive = about 30% to 50%; inactive = below about 30%; further: 0% is about no effect; the text of the record puts the active cut at 80%
#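 Agonist activity was taken from a 110 s kinetic Ca2+ dye read on the FDSS after pinning compounds onto TRPML1-DL cells. The cells were seeded at 1,500/well with Tet inducer, incubated about 16 h, then dye-loaded at room temperature.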
# * hit, by the source's call; ? = inconclusive; / = not tested or not shown; [ ] = remark or other dose.
SMILES,Menin MLL FP FL,TRPML1 blocker,ClpP mod,gsp agonist,gsp antag,TRPML1 agonist
CC(=O)c1cccc(N2C(=O)Nc3ccccc3N2O)c1,-1.5,0,-2.0%,-54%[inhibitor],5%,0.0
O=C(Nc1cccc(S(=O)(=O)NC2=NCCCCC2)c1)c1ccc(Cl)cc1,/,3,1.0%,-20%,-1%,0.2
CC(OC(=O)c1ccc(Cl)nc1)C(=O)Nc1ccc2c(c1)OCO2 (stereo unspecified),/,-2,0.6%,-8%,1%,-0.5
CCc1ccccc1NC(=S)N(CCN(C)C)C(C)c1cccnc1 (stereo unspecified),-1.1,10,/,14%[15.4 µM],10%,0.2
CCCSC1C(C)=C(C)C(=O)N1Cc1ccccc1 (stereo unspecified),-0.8,6,1.1%,9%,0%,0.1
Cc1ccccc1/C(N)=N/OC(=O)c1ccc(F)cc1,-2.7,8,1.1%,6%,3%,2.1
COCc1cc(C)nc(N)c1C#N,-1.8,4,?,?,15%,-0.7
CCOc1cccc(C(=O)NNC(=O)C2C3C=CC(C3)C2C(=O)O)c1 (stereo unspecified),/,-7,-0.5%,-2%,6%,-0.9
Cc1ccc(CNC(=O)c2cn(C)c(=O)c3c2c2ccccc2n3C)o1,6.2,-3,14µM*,-3%,-16%,-0.3
COc1ccc(C)cc1NC(=O)c1c([N+](=O)[O-])cnn1C,2.9,13,-0.3%,1%[15.4 µM],1%,-0.5
CCN(Cc1cc2ccccc2[nH]c1=O)S(=O)(=O)c1ccc(OC)cc1,/,-13,3.3%,-2%,-17%,-1.2
CC(C)NC(=S)NN=C1CCC(c2ccccc2)CC1 (stereo unspecified),-6.7,-3,/,-4%[15.4 µM],4%,0.1
CCc1ccc(Nc2nnc(SCC(=O)Nc3cccc(S(=O)(=O)NC4=NCCCCC4)c3)s2)cc1,-0.6,4,-4.1%,-14%,-20%,1.7
O=C(COc1ccccc1)Nc1ccccc1Cl,4.1,-5,0.2%,-3%,4%,1.1
O=C(Nc1ccc(Cl)cc1)C(c1ccccc1)N(CCO)CCO (stereo unspecified),3.9,1,-1.1%,23%,5%,-0.6
O=C(Nc1cccc(Br)c1)N1CCN2CCCCC2C1 (stereo unspecified),/,-1,1.0%,/,/,-0.2
Cc1ccc(-n2ncc3c(NCc4ccco4)ncnc32)c(C)c1,1.3,1,-3.7%,-8%,-9%,-0.6
Cc1ccc(NC(=O)CN2C(=O)S/C(=C/c3ccc(-c4cccc(C(=O)O)c4)o3)C2=O)cc1,?,-18,/,-1%,-5%,1.6
COc1ccccc1NC(=O)CN1CCN(S(=O)(=O)c2ccc(Br)cc2)CC1,0.9,-4,-12%,2%,-1%,-0.7
Fc1ccc(CSc2nnc(-c3cccs3)o2)cc1,0.4,11,-0.1%,-49%[inhibitor],15%,2.0
Cc1nc(-c2cccc(S(=O)(=O)N3CC(C)OC(C)C3)c2)cs1 (stereo unspecified),2.1,14,-0.1%,?,-6%,1.2
Cn1c(=O)cc(NCc2ccccc2)[nH]c1=O,-0.7,-13,0.7%,?,25%,0.2
O=C(Nc1nc(-c2cccnc2)cs1)c1ccc(S(=O)(=O)N2CCOCC2)cc1,-1.7,4,0.0%,13%,5%,-0.3
COc1ccc(/C(C)=N/NC(=O)c2cc(C)[nH]n2)c(OC)c1,-0.1,20,-2.6%,-30%[inhibitor],11%,1.8
C=CCC1(C)C(=O)N(c2ccccc2)c2ccccc21 (stereo unspecified),-0.7,23,-1.2%,-10%,8%,3.2

# Structures above that have two or more sulfur atoms:
SMILES,Menin MLL FP FL,TRPML1 blocker,ClpP mod,gsp agonist,gsp antag,TRPML1 agonist
CCc1ccc(Nc2nnc(SCC(=O)Nc3cccc(S(=O)(=O)NC4=NCCCCC4)c3)s2)cc1,-0.6,4,-4.1%,-14%,-20%,1.7
Fc1ccc(CSc2nnc(-c3cccs3)o2)cc1,0.4,11,-0.1%,-49%[inhibitor],15%,2.0
Cc1nc(-c2cccc(S(=O)(=O)N3CC(C)OC(C)C3)c2)cs1 (stereo unspecified),2.1,14,-0.1%,?,-6%,1.2
O=C(Nc1nc(-c2cccnc2)cs1)c1ccc(S(=O)(=O)N2CCOCC2)cc1,-1.7,4,0.0%,13%,5%,-0.3

# Sorted by value in Menin MLL FP FL (largest number first): 7 from the list above
smiles | Menin MLL FP FL
Cc1ccc(CNC(=O)c2cn(C)c(=O)c3c2c2ccccc2n3C)o1 | 6.2
O=C(COc1ccccc1)Nc1ccccc1Cl | 4.1
O=C(Nc1ccc(Cl)cc1)C(c1ccccc1)N(CCO)CCO (stereo unspecified) | 3.9
Cc1nc(-c2cccc(S(=O)(=O)N3CC(C)OC(C)C3)c2)cs1 (stereo unspecified) | 2.1
C=CCC1(C)C(=O)N(c2ccccc2)c2ccccc21 (stereo unspecified) | -0.7
CCCSC1C(C)=C(C)C(=O)N1Cc1ccccc1 (stereo unspecified) | -0.8
Cc1ccccc1/C(N)=N/OC(=O)c1ccc(F)cc1 | -2.7

# Remaining list, next part.
SMILES,Menin MLL FP FL,TRPML1 blocker,ClpP mod,gsp agonist,gsp antag,TRPML1 agonist
Cc1noc(C)c1COC(=O)CCCc1nc2ccccc2s1,4.2,12,-1.0%,18%,-13%,0.3
c1ccc(OCc2nc3c4c(ncn3n2)-c2ccccc2CC42CCCC2)cc1,4.3,-17,13µM*,10%[15.4 µM],-3%,0.6
CC(=O)Nc1ccc(NC(=O)CSc2nnc(COc3ccccc3C)n2CC2CCCO2)cc1 (stereo unspecified),2.0,-20,/,2%[15.4 µM],6%,0.1
COC(=O)[C@]1(Cc2ccccc2)N[C@H](CN(C)C(=O)Nc2ccc(C)cc2)[C@@H]2C(=O)N(C)C(=O)[C@@H]21,/,11,0.3%,/,-2%,-0.4
O=C(Nc1ncccn1)C12CC3CC(CC(C3)C1)C2,5.1,-12,/,-7%[15.4 µM],4%,0.0
Cc1oc2c(F)c(F)c(F)c(F)c2c1S(=O)(=O)Nc1cccc(C(F)(F)F)c1,/,-8,-2.6%,10%,-9%,0.4
Cc1ccc(NC(=O)C2CCN(S(=O)(=O)c3c(C)noc3C)CC2)cc1,/,-12,1.5%,/,/,-0.3
CCOC(=O)c1ccc(-n2c(CN(CC)CC)nc3ccc([N+](=O)[O-])cc3c2=O)cc1,0.9,?,1.8%,-2%,-12%,-0.5
CCc1ccc(-c2nc(CSCC(=O)NCc3ccc(C)cc3)c(C)o2)cc1,/,2,-16%,/,/,4.5
CCCCn1c(=O)nc2n(-c3ccc(Cl)cc3)c3ccccc3cc-2c1=O,2.3,11,-23%,-6%,7%,-1.6
CN1CCN(S(=O)(=O)c2ccc(N3CCN(S(=O)(=O)/C=C/c4ccccc4)CC3)nc2)CC1,-0.2,5,1.2%,-1%,2%,-0.9
COc1ccccc1C(=O)NCC(=O)OCC(=O)Nc1nnc(-c2ccccc2)o1,/,-5,-7.5%,23%,0%,-0.1
O=C(CSc1nc(N2CCCCC2)nc(N2CCCCC2)n1)Nc1nccs1,-0.6,-7,?,-4%,1%,0.3
CCOc1ccc(CN(C)C(=O)CN2C(=O)NC3(CCCc4ccccc43)C2=O)cc1 (stereo unspecified),/,-4,-0.4%,4%,-3%,0.9
CCCCN1C(=O)C(=O)N(CC(=O)Nc2cc(OCC)c(N3CCOCC3)cc2OCC)C1=O,-5.1,9,/,-8%[15.4 µM],8%,2.0
O=C(CN1CCCCC1)Nc1nnc(-c2ccccc2)s1,0.7,-5,3.1%,-30%,0%,-1.0
COCCNc1oc(/C=C/c2ccc(F)cc2)nc1C#N,/,-3,3.7%,/,/,0.4
COc1ccc(N(CC(=O)NCCSC2CCCCC2)S(=O)(=O)c2ccccc2)cc1OC,/,13,-1.0%,-71%[inhibitor],-7%,1.5
O=C1C(Cc2ccc(O)cc2)NC(=S)N1C1CCCCC1 (stereo unspecified),5.4,-2,/,12%[15.4 µM],3%,1.8
C=CCSc1nc2c(c(=O)[nH]1)C(c1ccccc1)C(C#N)=C(N)O2 (stereo unspecified),2.9,-5,-0.7%,17%,-21%,1.0
N/C(=N\OC(=O)c1cccc2ccccc12)c1cccnc1,2.6,-5,4.1%,-45%,5%,6.6
CCCS(=O)(=O)N1CCC(C(=O)NCCN(CC)c2ccccc2)CC1,4.3,11,-1.0%,-1%,-1%,0.2
CC(=O)NS(=O)(=O)c1ccc(NC(=O)/C=C/c2ccccc2Cl)cc1,0.1,2,2.2%,15%,-1%,-0.6
CCOc1ccc(-c2nnc(SCC(=O)Nc3ccc4c(c3)c3ccccc3n4CC)n2N)cc1,3.2,-4,-15%,27%,4%,-0.7
S=C(NCc1ccc(Cl)cc1)Nc1ccccc1,3.6,12,/,1%,-7%,-1.0
SMILES,Menin MLL FP FL,TRPML1 blocker,ClpP mod,gsp agonist,gsp antag,TRPML1 agonist
CN1C(=O)Cc2cc(S(=O)(=O)CCC(=O)Nc3cccc(C(F)(F)F)c3)ccc21,/,-10,-0.3%,/,/,0.0
CCCOc1ccc(/C=N/Nc2ccc(C(=O)O)cc2)c(OCCC)c1,-0.3,53,/,-14%[15.4 µM],10µM*,1.9
COc1cccc(NC(=O)COC(=O)c2ccc(C)c(S(=O)(=O)N3CCCCC3)c2)c1,/,2,-0.3%,-12%,-17%,1.1
O=C(O)CCCC(=O)NNc1nc(-c2ccccc2)c2cc(Cl)ccc2n1,4.0,48,0.0%,2%,-1%,-0.5
COc1cccc(C=NNC(=O)C2CC2)c1,/,25,/,-7%,6%,0.0
CC(C)NC(=O)CSc1ccccc1C(=O)N1CCN(S(=O)(=O)Cc2ccccc2)CC1,/,-12,-3.6%,-17%,4%,-0.3
COc1cccc(-c2nc(=S)c3c(n2Cc2ccco2)CCCC3)c1,0.4,7,0.0%,-11%,-4%,0.6
Cc1ccc(NC(=O)N2CCN(c3nnc(C)c4c(C)n(-c5ccccc5)nc34)CC2)cc1Cl,/,22,-3.8%,/,/,3.2
CC(C)N(Cc1ccccc1)C(=O)COC(=O)c1ccc2c(c1)OCCO2,1.2,6,-7.4%,-15%,-21%,0.1
O=C(O)C(Cc1ccc(Cl)cc1)NS(=O)(=O)c1ccc(Cl)cc1 (stereo unspecified),-4.0,-12,/,-27%,5%,1.2
O=C1c2ccccc2S(=O)(=O)c2cc(C(=O)N3CCC(C(=O)N4CCCCC4)CC3)ccc21,/,-7,-1.9%,19%,3%,-0.9
COc1cc(C(=O)N[C@H](C(=O)NC(C)C23CC4CC(CC(C4)C2)C3)C(C)C)cc(OC)c1OC (stereo partly specified),1.6,6,-0.6%,-2%,-8%,1.1
Cc1ccc(NC(=S)N/N=C/c2c(C)[nH]c3ccccc23)cc1,9.2,9,/,4%,-16%,-0.4
Cc1cccc(NC(=O)CSc2nnc(-c3cc(C)n(-c4ccccc4)c3C)o2)c1C,-0.1,-3,-1.5%,8%,-17%,2.7
CC(C)OC(=O)CSc1nc2cccnc2n1-c1ccc(F)cc1,1.2,-20,-1.5%,?,2%,2.3
